Screening results deposited in PubChem by National Center for Advancing Translational Sciences (NCATS).
HPGD block = inhibitors of human 15-hydroxyprostaglandin dehydrogenase (HPGD) | P15428 | 150,000 tested, 4.3% active | purified HPGD, NADH fluorescence kinetic, PGE2 substrate | Potency, µM, for the others: top-dose activity change, negative = inhibition, most hits filed as inhibitors; active = well fitted inhibition curve with a large enough effect (not every such curve was filed as active); inconclusive = small, poorly fitted or top-dose-only effect, or another doubt; inactive = no such curve, though single readings can be large or run the other way;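 also: top concentration of the series not given in the record; plate controls included wells without enzyme; inactives centre near -10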
Target sequence (P15428 whole entry, looked up): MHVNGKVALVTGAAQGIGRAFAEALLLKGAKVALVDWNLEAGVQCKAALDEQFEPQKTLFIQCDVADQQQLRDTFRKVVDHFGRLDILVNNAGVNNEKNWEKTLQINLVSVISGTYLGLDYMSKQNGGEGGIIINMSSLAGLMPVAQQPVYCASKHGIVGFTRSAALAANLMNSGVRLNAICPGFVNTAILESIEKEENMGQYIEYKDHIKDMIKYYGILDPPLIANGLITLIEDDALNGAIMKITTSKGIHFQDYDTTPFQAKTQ
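NADH formation kinetics: reaction with 30 uM PGE2 and 1 mM NAD+ (final), 20 nM enzyme, Tris-HCl pH 8 with Tween 20, after 15 min compound preincubation at room temperature. Fluorescence change, last versus first of five reads.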
Active calls of the source: *; u = inconclusive; & = joins results of further samples. % is scaled to controls: 0 for no effect and ±100 for the full control effect; potency is read from the fitted curve at half-maximal effect. The list is partial (hit frequency here may not be typical).

Sample of the layout (4 entries):
mol	HPGD block
COc1ccc(N2CC(C(=O)NCc3ccccc3)CC2=O)cc1 (stereo not drawn)	-9.6%
COC(=O)C(C)(C)NC(=O)c1cccs1	-3.5%
Cc1cc2oc(C(=O)Nc3cccnc3)c(C)c2cc1C	-16.1%
CC(Sc1nc(-c2ccccc2)cc(C(F)(F)F)n1)C(=O)Nc1ccc2c(c1)OCO2 (stereo not drawn)	-3.5%

The whole of this part, from the first entry:
mol	HPGD block
COc1ccc(N2CC(C(=O)NCc3ccccc3)CC2=O)cc1 (stereo not drawn)	-9.6%
COC(=O)C(C)(C)NC(=O)c1cccs1	-3.5%
Cc1cc2oc(C(=O)Nc3cccnc3)c(C)c2cc1C	-16.1%
CC(Sc1nc(-c2ccccc2)cc(C(F)(F)F)n1)C(=O)Nc1ccc2c(c1)OCO2 (stereo not drawn)	-3.5%
Cc1ccccc1NC(=S)NCc1ccc2[nH]c3c(c2c1)CCCC3	20µM*
O=C(Nn1c(-c2ccccc2)nc2ccccc2c1=O)c1ccc([N+](=O)[O-])cc1	-15.1%
COc1ccccc1N1CCN(C(=O)c2ccc(CSc3ccccc3)cc2)CC1	-15.8%
COc1ccc(-n2c(C)cc(C)c(C(C)=O)c2=S)cc1	2.4%
O=CN1CCc2c([nH]c3ccccc23)C1c1cccc2cccnc12 (stereo not drawn)	-5.0%
CCOC(=O)N1CCN(C(=O)CCCn2nc(C)c3sc4ccccc4c3c2=O)CC1	-28.4%
CC(C)N1C(=O)/C(=C\c2nc3ccccc3c(=O)[nH]2)c2ccccc21	-26.3%
CC(=O)N(CCCN(C)C)CCC(C)CCC=C(C)C (stereo not drawn)	-1.7%
Cc1ccccc1-c1nc(CS(=O)(=O)CC(=O)NCc2ccccc2)c(C)o1	-20.8%
Cc1nn(CC(O)c2ccccc2)c(C)c1Br (stereo not drawn)	-2.9%
CCOc1ccccc1N(CC(=O)N1CCCCCC1)S(C)(=O)=O	0.3%
O=C(NCCNC(=O)c1cc(OCC(F)(F)F)ccc1OCC(F)(F)F)Nc1ccccc1	-18.6%
COCCCN1C(=O)c2[nH]nc(-c3ccccc3O)c2C1c1cccc(Cl)c1 (stereo not drawn)	-9.0%
COc1ccc(C2CC(=O)c3ccccc3O2)cc1 (stereo not drawn)	1.0%
O=c1[nH]ncc2c3ccccc3n(Cc3ccccc3F)c12	-11.6%
c1ccc(-c2nc(-c3ccco3)cs2)nc1	-10.0%
CCOc1ccc(NS(=O)(=O)c2ccc(OC)c(C)c2)cc1	-12.6%
CC(C)Cc1nc(Nc2ccc(S(=O)(=O)N3CCCC3)cc2)c2nnn(Cc3ccccc3)c2n1	u
Cc1ccc(S(=O)(=O)N2CCC(C(=O)N[C@@H](C)C(=O)NCCc3ccccc3)CC2)cc1	7.7%
NC(=O)c1cc2cc(Br)ccc2oc1=NCc1ccccc1	-9.9%
O=[N+]([O-])c1ccccc1/C=C/CN1CCCCC1	4.7%
CCNC(=S)N(Cc1cccs1)Cc1cc2cc(OCC)ccc2[nH]c1=O	-16.3%
CCN(C(=O)CSc1nnc(Cc2ccccc2F)n1N)C1CCS(=O)(=O)C1 (stereo not drawn)	-7.1%
O=C1Nc2ccc(S(=O)(=O)NCCC3=CCCCC3)c3cccc1c23	u
CCNc1nc(NC(C)C)nc(Oc2ccc(OCCOc3ccc(C)cc3)nn2)n1	-8.5%
Cc1c(NC(=O)N(C)C)c(=O)n(-c2ccccc2)n1C	-13.7%
Cn1c(=O)c2c(nc(N/N=C\c3ccccc3C(=O)O)n2C)n(C)c1=O	-2.8%
CN1C(=O)CC(N2CCC(C(N)=O)CC2)C1=O (stereo not drawn)	-3.0%
CCNC(=S)N(Cc1cc2cc(C)cc(C)c2[nH]c1=O)C1CCCC1	-16.9%
COc1ccc2c(c1)C(C)=CC(C)(C)N2C(=O)C(C)N1C(=O)c2ccccc2C1=O (stereo not drawn)	-9.4%
O=C(CNC(c1ccccc1)c1ccccc1)Nc1c(F)cccc1F	0.8%
N#CC1=C(N)OC2=C(C(=O)CC(c3ccccc3)C2)C1c1ccc2c(c1)OCO2 (stereo not drawn)	28.2µM*
CCCC(=O)OC1CC(C)N(C(=O)c2ccccc2)c2ccc(C)cc21 (stereo not drawn)	-18.8%
CCOc1ccc(C(=O)OCCCN(C)C)cc1	8.6%
O=C(CN1C(=O)c2cccc3cccc1c23)Nc1cccnc1	u
COc1cccc(CN2C(=O)CCC2(C)C(=O)NC2CCCC2)c1 (stereo not drawn)	-4.6%
O=c1c2ccccc2nc(SCc2ccc([N+](=O)[O-])cc2)n1CCCO	-5.7%
CCOc1ccc(NC(=O)c2ccccc2NC(=O)CN2CCN(C(C)=O)CC2)cc1	-9.8%
CCN(CC)S(=O)(=O)c1ccc(C(=O)C(C#N)c2ccccn2)cc1 (stereo not drawn)	-26.8%
CCOC(=O)C1CCCN(C(=O)CNC(=O)Cn2ccc3ccccc3c2=O)C1 (stereo not drawn)	-12.5%
COC(=O)c1ccc(CSc2nc(N3CCOCC3)c3c(c2C#N)CC(C)(C)OC3)o1	-13.1%
Cc1cc(C(=O)Nc2cccnc2)on1	-3.5%
Nc1c(C(=O)NC23CC4CC(CC(C4)C2)C3)sc2nc3c(c(C(F)(F)F)c12)CCC3	-12.9%
Cc1ccc(C)c(N2CCN(C(=S)NC3CCCCC3)CC2)c1	-11.6%
COc1ccc(N=C2C(=Nc3ccc(OC)cc3)N(c3ccc(OC)cc3)C(=S)N2C(=O)c2ccc(OC)cc2)cc1	-10.5%
COc1cccc(N2CCN(C(=O)C3CCCN(S(=O)(=O)c4cnc[nH]4)C3)CC2)c1 (stereo not drawn)	-3.5%
COCCN(C(=O)Cc1cccs1)c1nnc(-c2ccncc2)s1	-4.9%
O=C(CSc1cccs1)NCCc1ccccc1	14.1µM*
CCC(C)[C@H](NC(=O)N1CCCC1)C(=O)OC (stereo partly drawn)	-12.1%
CCC(C)(C(=O)NC1CCCC1)N(CC1CCCO1)C(=O)CNC(=O)c1ccccc1 (stereo not drawn)	1.5%
CCOc1cccc(N2C(=O)CC(n3cnc4ccccc43)C2=O)c1 (stereo not drawn)	-8.9%
CC1CCC(C(C)C)C(OCC[N+](C)(C)C)C1 (stereo not drawn)	-11.9%
Clc1ccc(Cn2cccc2C2=NCCO2)cc1	-1.2%
COc1ccc(Cl)cc1NC(=O)CN(C)C1CCCCC1	-15.1%
CC(C)(C)Nc1oc(-c2ccccc2)nc1-c1ccccc1	-7.7%
Cc1ccc(C(=O)CC(=O)COc2ccc(Cl)cc2C)cc1	-16.6%

4 compounds drawn at random from the list so far:
mol	HPGD block
Cc1ccc(C(=O)CC(=O)COc2ccc(Cl)cc2C)cc1	-16.6%
CC(C)(C)Nc1oc(-c2ccccc2)nc1-c1ccccc1	-7.7%
CCC(C)(C(=O)NC1CCCC1)N(CC1CCCO1)C(=O)CNC(=O)c1ccccc1 (stereo not drawn)	1.5%
O=c1c2ccccc2nc(SCc2ccc([N+](=O)[O-])cc2)n1CCCO	-5.7%

(next part)
mol	HPGD block
COc1ccc(C2CC(c3ccc(Cl)cc3)Nc3nc(NC(=O)c4ccco4)nn32)cc1 (stereo not drawn)	-9.8%
Cc1ccc(OCCN2C(=O)S/C(=C\c3ccc(C)o3)C2=O)cc1	-10.2%
Cc1ccc(C2=NNC(C(O)C(O)C(O)CO)S2)cc1 (stereo not drawn)	-15.7%
O=C(CN1CCN(c2ccccn2)CC1)N(c1ccccc1)c1ccc2ccccc2c1	0.2%
O=C(NNC(=O)c1ccccc1)C(=O)N1CCCCC1	-8.3%
CC1(C)Cc2c(C#N)c(N3CCOCC3)nc(-c3ccccc3)c2CO1	u
O=c1oc(-c2ccc(F)cc2)nc2ccsc12	-7.6%
O=S(=O)(c1cccs1)N1CCN(Cc2ccccc2)CC1	0.0%
O=C(CSc1ccc2nnc(-c3ccc(F)cc3)n2n1)N1CCCc2ccccc21	-3.0%
Cn1cc([N+](=O)[O-])c(C(=O)Nc2cc(Oc3cccnc3)cc([N+](=O)[O-])c2)n1	-7.1%
CCCN(CCC)C(=S)NC(=O)c1ccc(Cl)cc1Cl	-7.6%
Cc1nn(C)c(C)c1S(=O)(=O)N(CC(=O)Nc1ccccn1)c1ccc(C(C)C)cc1	2.1%
CCC(=O)c1ccc(N2CCCCCC2)c(F)c1	15.8µM*
COc1nc(Cl)cn(-c2ccc(Cl)cc2)c1=O	u
COc1ccc(/C=C(/NC(=O)c2ccccc2)C(=O)N/N=C/c2cccs2)cc1OC	-6.7%
O=C(NCc1cccnc1)c1cnn2ccccc12	-11.5%
Fc1ccc(Sc2nc(-c3ccccc3)nnc2C(F)(F)F)cc1	-15.0%
Cc1noc(-c2ccccc2OC(=O)c2ccccc2)n1	-8.7%
Cc1ccc(OCCCCn2cnc3ccccc32)c(C)c1	-24.9%
O=C(NC12CC3CC(CC(C3)C1)C2)c1cnccn1	-11.4%
O=C(Nc1c2c(nn1-c1ccc(F)cc1)CSC2)c1ccc(S(=O)(=O)N2CCOCC2)cc1	-6.7%
CCc1nc2n[nH]c(N)c2c2c1CCCC2	0.3%
O=CN1CCN(C(=O)c2ccccc2F)CC1	-3.7%
COc1ccc(Nc2nnc(SCc3cn4c(C)cccc4n3)s2)cc1	-1.6%
Cc1cc(C)nc(-n2nc(C)cc2NC(=O)CN2CCCC(C)C2)n1 (stereo not drawn)	-5.7%
COc1cc(C(=O)O)cc(OC)c1OCc1cc(C(=O)O)oc1C	-15.1%
Cc1onc(-c2ccccc2Cl)c1C(=O)NCc1ccc(S(N)(=O)=O)cc1	-17.8%
CCCOn1c(-n2nc(C)cc2C)nc2ccccc2c1=O	-3.5%
CC1Oc2ccccc2N(Cc2cccnc2)C1=O (stereo not drawn)	-10.7%
O=C(COC(=O)c1ccccc1NC(=O)c1ccco1)Nc1ccc2c(c1)OCO2	-16.3%
Cc1ccc(C(=O)Nc2cccc(C(=O)O)c2)cc1	-1.8%
CCOC(=O)c1cccc(NC(=O)c2cncc(Br)c2)c1	-3.2%
COc1ccc(-c2nc(-c3cccc(C)c3)no2)cc1OC	-13.2%
Cc1nc2c(c3c1[nH]c1ccccc13)C(O)CC(C)(C)C2 (stereo not drawn)	u
c1ccc(-n2ncc3c(NCc4ccc5c(c4)OCO5)ncnc32)cc1	-18.3%
CCc1nc(SCC(=O)N2CCN(c3ccccc3)CC2)c2oc3ccccc3c2n1	u
CSCCC(NS(=O)(=O)c1ccc(Cl)cc1)C(=O)OCC(=O)NC1CC1 (stereo not drawn)	-3.4%
Cc1ccc(OS(=O)(=O)c2ccccc2)c(/C=N/N=C2\NC(=O)C(C)S2)c1 (stereo not drawn)	-5.2%
Cc1nc2ccccc2n1CC(=O)N/N=C/c1cccs1	-5.0%
CCCC(C(=O)OCCN(CC)CC)(c1ccccc1)c1ccccc1	-15.8%&-7.8%&-2.5%

Three compounds from above, ordered by the number in HPGD block, largest number first.
mol	HPGD block
Cc1ccc(OS(=O)(=O)c2ccccc2)c(/C=N/N=C2\NC(=O)C(C)S2)c1 (stereo not drawn)	-5.2%
CC1Oc2ccccc2N(Cc2cccnc2)C1=O (stereo not drawn)	-10.7%
O=C(COC(=O)c1ccccc1NC(=O)c1ccco1)Nc1ccc2c(c1)OCO2	-16.3%

Further compounds.
mol	HPGD block
COc1ccc(CCCc2nnc(SCC(=O)Nc3nc(C)cs3)n2C)cc1C	0.6%
NC(=O)NCc1cccc(Cl)c1	-6.2%
Cc1ccc(NC2=NC(c3ccco3)n3c(nc(C)cc3=O)N2)c(C)c1 (stereo not drawn)	-2.2%
CC(=O)N1CN(C2CCCC2)Cc2c1sc1c2CCCC1	-16.1%
O=C(CSc1nc2sc3c(c2c(=O)n1-c1ccccc1)CCCC3)NCc1ccco1	-21.5%
COc1cccc(/C=N/Nc2ncnc3c2ncn3Cc2ccccc2)c1O	-16.2%
Cc1cc(C)n(-c2nc3ccccc3nc2NCCc2ccccc2)n1	u
CCOc1ccc2nc(SCC)[nH]c2c1	u
CC1CCN(c2nc3ccc(C(=O)O)cc3s2)CC1	-14.2%
CCCOC(=O)C1C2C=CC(C3CC23)C1C(=O)OCC(=O)c1ccccc1 (stereo not drawn)	-2.9%
O=C(NCCO)c1ccc(Cl)c(Cl)c1	u
O=C(CCn1c(=O)oc2ccccc21)N1CCN(c2ccc(F)cc2)CC1	-12.3%
COc1ccc(C)cc1NC(=O)COC(=O)C1CC1	-2.1%
N#Cc1nc(N2CCCCC2)nc(N2CCOCC2)n1	-18.0%
Cc1ccc(N=C2NC(=O)/C(=C\c3cccs3)S2)cc1C	-14.7%
Nc1c(-c2ccccc2)cnn1-c1cccc([N+](=O)[O-])c1	u
CCC(C)NC(=O)CSC1=Nc2ccccc2C2=NC(CC(=O)NCc3ccc(F)cc3)C(=O)N12 (stereo not drawn)	u
C/C(=N\NC(=O)C(c1ccccc1)c1ccccc1)c1ccccn1	-2.3%
COc1cccc(N=Cc2c(O)n(-c3cccc(C)n3)c(=O)c3ccccc23)c1	-29.7%
CCSCc1nnc(SCC(=O)c2ccc(OC)cc2)n1C	-3.2%
COC(=O)c1ccc(NC(=O)CSCC(=O)OCC(=O)c2ccc(Br)cc2)cc1	-30.0%
O=C(NCCN1C(=O)CSC1=O)C1CC(=O)N(c2ccccc2)C1 (stereo not drawn)	-1.4%
